Bead autofluor = compound fluorescence in toxin protease inhibitor counterscreen. fluorescence intensity (test concentration not listed). 360,000 compounds, 3.1% hits. AID 624483. compound autofluorescence counterscreen, microsphere flow cytometry; active compounds read high;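 active means at least 3 SD above the mean of all compounds, about 16000 in these data; inconclusive means too few beads counted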;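 further: 100 nL of 1 mM stock went into each well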
PrP 5UTR inh = inhibition of PrP 5' UTR reporter expression. cell-based PrP 5' UTR mRNA reporter, plate reader. inhibition, % (test concentration not listed). 340,000 compounds, 0.35% hits;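 active means every replicate at 50% or more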;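 further: 0 = median of the neutral control wells; tested in H4 reporter cells; numbers are from one replicate; inactives centre near -14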
Mtb hypoxia inh = PubChem AID 1159583; M. tuberculosis hypoxia-regulated fluorescent reporter, fluorescence; fluorescence inhibition, % (concentration not given with the values); 300,000 compounds, 0.1% hits;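 active means 35 to 45% if threefold the growth effect, above 45% if 1.5-fold the growth effect; inactive means the rest, general growth blockers included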;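 further: wells of about 50 µL received 100 nL stock; 0% = vehicle wells and 100% = reference inhibitor wells; whole bacteria with a GFP reporter of the hypoxia response; strong numbers were not always called active; many hits fall short of the cut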
BJeLR lethal = MLPCN primary cell-based screen for lethality selective to Ras in HRASV12 cells | BJeLR (HRASV12) viability, CellTiter-Glo ATP luminescence, 48 h; reference of the scale not given here | AID 1554, 2009 | 300,000 compounds, 0.17% hits | inhibition, % (test concentration not listed);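 active means replicate mean above 50%; inconclusive means above 50% but judged a plate artefact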;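 further: 50 nL library stock added to about 25 µL; numbers are from one replicate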
RN4220 kill = growth inhibition of S. aureus RN4220, primary screen, OD600; 16 h; inhibition, % (concentration not given with the values); 330,000 compounds, 0.33% hits;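 active means z-score of -3 or lower and OD600 up to 0.18 on both plates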;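 further: plate controls were untreated cells for no effect and reference antibiotic for full effect; stock transfer was 100 nL into about 80 µL; one replicate is shown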
ugtP null kill = growth inhibition of ugtP-null S. aureus, primary screen, RN4220 ugtP deletion, OD600; AID 1259309, 2017; 330,000 compounds, 0.54% hits; growth inhibition, % (concentration not given with the values); 16 h; some inactives read as strong as hits;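 active means z-score under -3 and OD600 up to 0.15 on both plates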;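 further: plate controls were untreated wells for no effect and antibiotic for full effect; wells of about 80 µL received 100 nL stock; the first replicate is given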
Mtb hypoxia inh growth = recorded beside Mtb hypoxia inh, whose call it bears; growth inhibition, %; measured here: M. tuberculosis growth (absorbance);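 0% = vehicle and 100% = reference antibiotic; read after six days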
Numbers without * were called inactive; ? = inconclusive; · = not tested or not shown.

The line under a structure holds: Bead autofluor	PrP 5UTR inh	Mtb hypoxia inh	Mtb hypoxia inh growth	BJeLR lethal	RN4220 kill	ugtP null kill
- NS(=O)(=O)c1ccc(NC(=O)COC(=O)c2ccc([N+](=O)[O-])s2)cc1
  5124	-4.9	11.3	12.2	5.2	75.5	50.9
- CC(=O)c1cccn1S(=O)(=O)c1ccccc1
  3581	-23.0	9.3	0.8	-4.0	1.5	-3.7
- COc1ccc(S(=O)(=O)N2CCN(C(=O)c3oc4ccccc4c3C)CC2)cc1
  7163	-22.1	11.1	-1.0	2.5	-4.0	6.6
- Cc1ccc(-n2nnnc2SCC(=O)N2CCCCC2)cc1
  4973	-37.2	2.2	12.3	-8.7	5.3	1.4
- Cc1cc(/C=N/n2cnnc2)c(C)n1-c1ccc2c(c1)OCO2
  8182	1.9	·	·	-14.3	·	·
- COc1ccc(CCN2C(=O)CC(N3CCN(S(=O)(=O)c4ccccc4)CC3)C2=O)cc1 (stereo not given)
  4480	4.3	·	·	3.0	-0.4	-6.2
- CCOC(=O)C1=C(C)N=C2SC(C(=O)OC)=CC(=O)N2C1c1cc(OC)c(OC)c(OC)c1 (stereo not given)
  2191	-18.8	·	·	0.8	·	·
- Cc1ccc(-c2cc(C(F)F)n3ncc(C(=O)NCc4ccco4)c3n2)cc1
  2630	-13.6	·	·	·	5.8	-10.1
- COc1ccccc1CNC(=O)C1CC2Cn3c(nc4cc5ccccc5cc43)C2N1C (stereo not given)
  3431	-13.7	8.3	6.3	2.1	3.8	-2.3
- O=C(CN(Cc1ccccc1)S(=O)(=O)c1ccccc1)NN=Cc1ccccc1C(=O)O
  ·	·	10.7	-5.9	·	12.2	11.1

4 records drawn at random from the list so far, as already listed:
The line under a structure holds: Bead autofluor	PrP 5UTR inh	Mtb hypoxia inh	Mtb hypoxia inh growth	BJeLR lethal	RN4220 kill	ugtP null kill
- O=C(CN(Cc1ccccc1)S(=O)(=O)c1ccccc1)NN=Cc1ccccc1C(=O)O
  ·	·	10.7	-5.9	·	12.2	11.1
- CCOC(=O)C1=C(C)N=C2SC(C(=O)OC)=CC(=O)N2C1c1cc(OC)c(OC)c(OC)c1 (stereo not given)
  2191	-18.8	·	·	0.8	·	·
- CC(=O)c1cccn1S(=O)(=O)c1ccccc1
  3581	-23.0	9.3	0.8	-4.0	1.5	-3.7
- COc1ccc(CCN2C(=O)CC(N3CCN(S(=O)(=O)c4ccccc4)CC3)C2=O)cc1 (stereo not given)
  4480	4.3	·	·	3.0	-0.4	-6.2

The results go on:
The line under a structure holds: Bead autofluor	PrP 5UTR inh	Mtb hypoxia inh	Mtb hypoxia inh growth	BJeLR lethal	RN4220 kill	ugtP null kill
- O=C(c1n[nH]c(=O)c2ccccc12)N1CCC2(CC1)OCCO2
  5115	-6.3	11.4	-0.3	-6.7	6.7	14.1
- CC(C)CNC(=O)C1CC(=O)OC12CCCCC2 (stereo not given)
  2475	-12.9	1.6	12.1	11.4	1.6	-2.9
- Nc1ccc(Sc2ccccc2Cl)nc1
  3472	-14.1	-5.4	-3.6	-6.2	-0.4	3.9
- C=CCOc1ccc(/C=N/Nc2ccccn2)cc1OC
  3360	-80.7	·	·	12.3	·	·
- CSc1nnc(-c2cccn(Cc3cccc(Cl)c3)c2=O)o1
  3901	-4.6	13.0	21.0	22.2	0.2	3.7
- CCn1c(CC(=O)Nc2cccc(Cl)c2Cl)nnc1SCCOc1ccc(OC)cc1
  10814	-20.9	8.6	5.9	2.7	-0.8	-8.6
- Cc1ccccc1CC(=O)c1ccc(O)c(C)c1O
  4812	-11.1	-2.9	-3.0	3.4	-7.9	-15.0
- O=C(NCCCn1ccnc1)/C(=C\c1cccnc1)NC(=O)c1ccccc1F
  6628	-27.4	8.7	5.9	7.9	2.7	5.5
- CC(C)n1c(NCc2ccc(N(C)C)cc2)nc2ccccc21
  2652	2.8	·	·	3.7	-6.0	10.4
- Cc1nc(SC(C(=O)c2ccccc2)c2ccccc2)nc2ccccc12 (stereo not given)
  2118	-5.4	·	·	-7.9	·	·
- COc1ccc(CC(=O)N/N=C(\C)c2cccnc2)cc1
  5331	-17.0	·	·	-7.3	·	·
- CCN1CCN(CCC(=O)Nc2cc(OC)ccc2OC)CC1
  3579	-22.6	2.3	11.8	-4.7	-3.7	7.9
- COC(=O)c1cc(NS(=O)(=O)c2ccc(OC)c(OC)c2)ccc1Cl
  3990	-7.6	-5.1	12.5	-8.5	2.5	-6.0
- O=S(=O)(/C=C/c1ccccc1)N1CCN(c2ccc(F)cc2)CC1
  10157	-15.7	6.3	1.9	0.7	4.7	3.1
- FC(F)(F)c1nc2cc3nc4ccccc4[nH]c3cc2n1
  5949	-67.9	·	·	-5.2	10.7	-8.4
- COc1cc2c(cc1OC)C(c1ccncc1)CC(=O)N2 (stereo not given)
  2331	10.8	·	·	-8.9	-0.5	-2.4
- CC(=O)Nc1ccc(S(=O)(=O)NCCC(=O)OCC(=O)NC(C)c2ccc(Cl)cc2)cc1 (stereo not given)
  3627	-6.3	-9.5	4.4	·	-7.4	-3.3
- O=S(=O)(NC1CCCCC1N1CCN(c2cccc(Cl)c2)CC1)c1ccccc1 (stereo not given)
  4736	-1.6	6.1	-7.8	-5.5	1.7	-3.7
- CC(C)CC(COCc1cccc(Cl)c1)N1CCN(C(=O)c2cccc(C(F)(F)F)c2)CCC1=O (stereo not given)
  2842	2.7	·	·	-4.7	·	·
- O=C(CN1CCCCCC1)N1c2ccccc2Sc2ccccc21
  4627	-6.8	5.6	4.6	-3.7	2.2	1.0
- COc1cccc(NC(=O)c2cc3ccccc3cc2OC)c1
  4208	-71.8	7.5	-4.5	-0.6	2.8	1.2
- COc1ccccc1N1CCN(c2ccc([N+](=O)[O-])cn2)CC1
  3949	-16.2	-5.6	-4.0	-2.8	6.5	8.0
- O=C1C2ON(c3ccccc3)C(c3ccncc3)C2C(=O)N1c1ccc(Br)cc1 (stereo not given)
  20513*	-14.3	8.7	15.1	3.0	6.7	4.2
- COc1ccc(NC(=O)c2cc3c(COC(C)=O)cnc(C)c3oc2=Nc2cccc(C(=O)O)c2)c(OC)c1
  2987	14.4	-1.5	-3.3	6.3	6.6	7.7
- CCCc1cc(=O)[nH]c(SCC(=O)Nc2ccc(Cl)c(S(=O)(=O)N3CCOCC3)c2)n1
  8805	-23.9	13.2	0.1	·	4.3	-0.3
- O=S1(=O)CCN2C=C(Br)C=C(Br)C2=N1
  10810	-0.5	0.7	6.8	2.6	0.1	1.9
- CCCCOP(=O)(OCCCC)C(O)c1ccc(F)cc1 (stereo not given)
  5518	-15.1	14.2	8.5	-6.2	2.8	-2.1
- CC1CCN(C(=O)CSc2nnc3c(n2)[nH]c2ccccc23)CC1
  3728	-16.4	-0.8	-5.1	-9.1	-0.7	12.2
- COc1cccc(C=NNC(=O)c2csc(-n3nc(C)cc3C(F)(F)F)n2)c1
  ·	·	1.4	-0.3	·	0.4	-5.3
- Cc1cc(C)c2nc(-c3ccco3)cc(C(=O)O)c2c1
  2238	-29.1	6.7	7.4	-16.1	4.3	-5.5
- COCC1CCN(C(=O)C2CCC(=O)N(C3CCCC3)C2)CC1 (stereo not given)
  6036	-15.8	14.4	3.4	-7.6	3.2	5.1
- CCCNC(=O)C(Cc1ccc(F)cc1)NC(=O)c1ccc(C#N)cc1 (stereo not given)
  2975	-20.7	2.4	9.4	·	3.7	3.4
- Cc1noc(NC(=O)c2ccccc2C(F)(F)F)c1C#N
  2547	-20.4	7.8	2.8	-0.2	4.4	-3.1
- COc1ccc(C(CNC(=O)c2oc3cc(C)c(Cl)cc3c2C)N2CCCCC2)cc1 (stereo not given)
  4446	-20.7	-5.4	1.0	1.6	3.5	5.4
- Cc1ccc(NC(/C=C/N(C)C)=C/C(=O)C(F)(F)F)c(C)c1
  4712	-19.8	5.1	3.3	-5.6	3.5	6.0
- CCOc1ccc(C(c2c(C)[nH][nH]c2=O)c2c(C)[nH][nH]c2=O)cc1OCC
  2152	-8.1	-1.1	18.2	-1.2	-1.8	2.3
- O=C1N=C(N2CCOCC2)S/C1=C/c1ccc(-c2ccc(F)cc2)o1
  4200	-75.1	3.8	12.9	4.6	20.0	12.8
- Cc1cccc(NC(=O)c2ccc(N3CCOCC3)c([N+](=O)[O-])c2)n1
  4370	-49.7	-4.2	8.5	-1.1	9.3	6.0
- COc1ccccc1N1CCN(C(=O)CNC(=O)c2cn(-c3ccccc3OC)c(=O)c3ccccc23)CC1
  4597	-6.1	-5.6	6.8	6.0	14.0	-1.0
- Cc1nc(N2CCN(C)CC2)c2c3c(sc2n1)CCCC3
  3583	-10.2	9.2	9.0	3.2	3.3	5.7
- COCCN=c1scc(-c2ccc3c(c2)NC(=O)CO3)n1N=C(C)c1ccc(O)cc1
  ·	·	-8.3	2.5	·	-3.3	-7.3
- COC(=O)CN1C(=S)N(c2ccc(F)cc2)C(=O)C1CC(=O)Nc1ccc(OC)cc1 (stereo not given)
  ·	-7.7	3.7	-3.6	-2.6	2.2	9.0
- CCN1C(=O)C(CC(=O)Nc2ccc(OC)cc2)N(CCCN2CCN(c3ccc(F)cc3)CC2)C1=S (stereo not given)
  4006	4.5	·	·	-1.3	·	·
- CC1=C(C(=O)Nc2ccc(C(=O)NCCC(C)C)cc2)SCCO1
  3548	-58.4	3.7	9.9	-4.6	4.4	7.5
- COc1ccc(CCn2c(C)cc(C(=O)CSc3nnnn3-c3ccccc3)c2C)cc1OC
  10342	-7.3	16.4	4.1	6.7	7.9	-5.2
- COC(=O)CSc1nnc([C@H](CC(C)C)NC(=O)OC(C)(C)C)o1
  10051	-16.9	·	·	-0.9	0.2	-3.5
- Cc1ccccc1-c1nc(S(=O)(=O)c2ccc(Br)cc2)c(NCc2cccnc2)o1
  20211*	-10.0	-2.1	5.9	0.0	1.1	-11.1
- CCN(CC)C(=O)Cn1cc(C(=O)C(=O)NCCc2c[nH]c3ccccc23)c2ccccc21
  5160	2.7	2.6	-6.4	-12.5	1.1	-3.0
- CCOC(=O)c1c(CN2CCOCC2)n(-c2ccccc2)c2cc(Br)c(O)cc12
  ?	-21.8	3.0	10.2	-0.7	1.2	36.2
- O=C(COc1ccccc1[N+](=O)[O-])Nc1ccc2oc(=O)ccc2c1
  5048	-18.3	4.4	-1.0	-1.9	5.5	-0.1

Carrying on:
The line under a structure holds: Bead autofluor	PrP 5UTR inh	Mtb hypoxia inh	Mtb hypoxia inh growth	BJeLR lethal	RN4220 kill	ugtP null kill
- COCCNC(=O)C1CC(=O)N(C2CCCC2)C1 (stereo not given)
  5890	-31.5	2.4	1.8	-0.2	2.3	3.5
- CCS(=O)(=O)N1CCN(S(=O)(=O)c2ccc(S(=O)(=O)NC3CC3)cc2)CC1
  3520	-17.8	4.3	1.6	0.8	2.0	7.2
- Cc1cc(C)cc(CSc2nnc(C)c(=O)[nH]2)c1
  3390	1.1	22.9	-0.1	-3.7	4.7	2.4
- N/C(=N\OC(=O)c1ccc(Br)cc1)c1cccc([N+](=O)[O-])c1
  4187	-37.6	·	·	-0.4	·	·
- COc1ccc(N/C(C)=C2/C(=O)C(=O)N(CCO)C2c2ccc(Br)cc2)cc1 (stereo not given)
  3633	-7.2	11.7	9.2	-3.3	-0.6	-9.6
- O=C(/C=C/Nc1ccccc1C(=O)O)c1cccs1
  8284	-33.2	·	·	-11.0	·	·
- CC1CCCC(C)N1C(=O)COC(=O)/C=C/c1ccc(Br)o1 (stereo not given)
  8078	-8.9	-5.4	7.5	·	3.0	-1.1
- Cc1noc(C)c1COC(=O)c1ccc(-c2nc3ccccc3s2)s1
  3628	-88.6	·	·	13.8	2.1	5.4
- COc1ccc(Cl)cc1NC(=O)CN(C)C(=O)Cc1ccc2c(c1)CCC2
  4886	-10.4	11.9	13.6	-5.3	5.7	-0.7
- COc1cccc(C(=O)NCCNC(=O)c2ccccn2)c1
  5764	-19.3	2.5	4.6	-4.1	3.1	0.0
- CCOC(=O)c1c(-c2ccccc2)csc1NC(=S)NC(=O)c1ccccc1
  4024	-8.2	4.1	-3.6	5.7	3.3	35.3
- CC1CC(C)CN(C(=O)COc2cccnc2[N+](=O)[O-])C1 (stereo not given)
  3998	-19.6	5.4	6.6	·	2.4	1.6
- COc1ccc(-c2nnc(SCCOc3cccc(C)c3)n2N)cc1
  4216	-18.8	-7.3	-5.7	-20.2	-6.1	0.3
- CN(Cc1ccccc1)C(=O)Cn1cccc1C(=O)c1ccccc1
  4173	-24.9	0.6	1.1	-14.2	5.6	-5.9

High-throughput results as filed in PubChem.
